# T cruzi repl = blocks replication of Trypanosoma cruzi | T. cruzi beta-gal in NIH3T3, luminescence, 90 h | inhibition, % (concentration not given with the values) | 300,000 compounds, 1.4% hits | AID 1885;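 active = mean inhibition across valid replicates above about 55%, limit read from the data; inconclusive = mean below that limit but half or more replicates reach it; inactive = mean below it, under half of replicates reach it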;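 also: signal also drops with host cell toxicity which is not excluded here; 0% = plate median of DMSO wells and 100% = zero luminescence signal; higher percent means less beta-gal luminescence so fewer parasites; stock transfer was 50 nL into about 50 µL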
# A1 inh = inhibitors of the anti-apoptotic protein A1, read as caspase activation. 330,000 compounds, 0.066% hits. MEF A1-2A-BIM cells, Caspase-Glo 3/7 luminescence, 3 h; percent of clofoctol response, vehicle zero. AID 2462. caspase activation, % (test concentration not listed);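 active = over half of replicate activation scores above 10%, or exactly half above 10 with the replicate mean above 10; inconclusive = replicate mean below 10 yet half the replicates above 10; inactive = over half of replicates below 10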;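 also: wells of about 30 µL received 50 nL stock; many hits fall short of the cut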
# ALR H2O2 inh = inhibitors of human sulfhydryl oxidase ALR; P55789; purified ALR, DTT oxidation, H2O2 HRP-luminol luminescence; inhibition, % (no concentration beside the values); 290,000 compounds, 3.8% hits; AID 485317;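 active = mean and each replicate at 75% or more; inconclusive = only one of the two met; inactive = neither met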;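 also: stock transfer was 7.5 nL into about 7.5 µL; 0% = neutral wells and 100% = wells with inactivated enzyme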
# Target sequence (P55789 whole entry, looked up): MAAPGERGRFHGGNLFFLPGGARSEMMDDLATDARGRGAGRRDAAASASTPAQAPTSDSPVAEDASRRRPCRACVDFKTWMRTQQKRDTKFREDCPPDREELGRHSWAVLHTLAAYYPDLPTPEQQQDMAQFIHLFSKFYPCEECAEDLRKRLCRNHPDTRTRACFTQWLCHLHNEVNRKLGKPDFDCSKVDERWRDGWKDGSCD
# Beta2AR agonist = human beta-2 adrenergic receptor agonism by FAP. P07550. Am2.2-beta2AR cells, FAP receptor internalization, flow cytometry; reference of the scale not given here. response, % (test concentration not listed). 340,000 compounds, 0.43% hits;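 active = response above a set limit, near 3 SD of response in nonfluorescent compounds, cut at about 42% in these data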;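 also: stock transfer was 100 nL into about 11 µL; a reference agonist was the positive control; negative values mostly stem from fluorescent compounds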
# Target sequence (P07550 whole entry, looked up): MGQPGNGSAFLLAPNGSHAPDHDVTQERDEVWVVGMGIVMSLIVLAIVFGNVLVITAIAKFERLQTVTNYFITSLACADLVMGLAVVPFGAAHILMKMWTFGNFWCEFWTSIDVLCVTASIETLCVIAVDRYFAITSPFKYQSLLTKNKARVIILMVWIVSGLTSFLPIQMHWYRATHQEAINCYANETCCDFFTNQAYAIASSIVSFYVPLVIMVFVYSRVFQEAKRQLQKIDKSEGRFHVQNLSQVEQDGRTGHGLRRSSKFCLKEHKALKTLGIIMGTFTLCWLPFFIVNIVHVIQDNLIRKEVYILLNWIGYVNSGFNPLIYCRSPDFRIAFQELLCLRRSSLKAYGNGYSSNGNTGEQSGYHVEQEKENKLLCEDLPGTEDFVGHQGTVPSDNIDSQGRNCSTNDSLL
# Beta apoptosis = blocks beta cell apoptosis; INS-1E cytokine-induced death, ATP luminescence, 48 h; percent of positive-control rescue, neutral wells zero; protection from apoptosis, % (concentration not given with the values); 300,000 compounds, 0.8% hits; AID 435005;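 active = all replicates at 75% or more, or half of them and the mean; inconclusive = half reach 75% but not the mean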;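 also: 0% = cytokine-treated negative control wells and 100% = positive control rescue; higher means more ATP so stronger rescue from cytokine killing; wells of about 40 µL received 100 nL stock; the first replicate is given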
# LANA-H2A inh = blocks KSHV LANA binding to histone H2A/H2B. Q9QR71. cell-free LANA-H2A/H2B peptide, fluorescence polarization. inhibition, % (concentration not given with the values). 320,000 compounds, 0.6% hits. AID 2629; in the data active = inhibition mostly above about 10%, no sharp cut-off; inactive = mostly below about 6.7%;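 also: stock transfer was 7.5 nL into about 10 µL; 0% = median of vehicle wells and 100% = median of positive control wells; one replicate is shown; the record names a cut of 25% in any replicate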
# rRNA inh HTS = selective bacterial rRNA inhibition in E. coli. E. coli WT GFP vs humanized-ribosome RFP mutants, fluorescence, 24 h; stronger effect = lower value; DMSO median 0, no signal -100. GFP signal change (wild-type ribosome), % (no concentration beside the values). 350,000 compounds, 1.6% hits. AID 720706;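 active = significant combined selectivity score with lowered wild-type GFP, culture density cut under 30%, mutant RFP and density less affected; inactive = any of these conditions unmet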; also: one replicate is shown; some compounds called inactive have numbers as strong as hits
# Calb FLC = affects C. albicans growth with fluconazole; growth inhibition, % (test concentration not listed); C. albicans CaCi-2 (fluconazole-resistant clinical isolate) + fluconazole, Alamar Blue growth, 48 h; AID 1979; 300,000 compounds, 0.57% hits;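 active = most replicates above 75%; inconclusive = exactly half above 75%; inactive = most below 75%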;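 also: all wells also contain fluconazole at 8 µg/ml as a sub-toxic cotreatment; 0% = median of DMSO wells and 100% = median of geldanamycin control wells; wells of about 8 µL received 7.5 nL stock; the first replicate is given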
# rRNA inh HTS OD600 = recorded beside rRNA inh HTS, whose call it bears; OD600 change, %; measured here: OD600 growth;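 optical density of the mix in the first replicate; 0 = DMSO median and -100 = no signal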
# rRNA inh HTS RFP = also measured in rRNA inh HTS; calls as there; RFP signal change, %; measured here: RFP humanized mutant strains;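 first replicate; 0 = DMSO median and -100 = no signal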
# * hit, by the source's call; ? = inconclusive; · = not tested or not shown. A portion of the library. The share of hits here may be higher or lower than overall.
canonical_smiles,T cruzi repl,A1 inh,ALR H2O2 inh,Beta2AR agonist,Beta apoptosis,LANA-H2A inh,rRNA inh HTS,rRNA inh HTS OD600,rRNA inh HTS RFP,Calb FLC
CC(C)=CCC[C@](C)(O[C@@H]1O[C@H](CO[C@@H]2OC[C@@H](O)[C@H](O)[C@H]2O)[C@@H](O)[C@H](O)[C@H]1O)C1CC[C@]2(C)C1[C@H](O)CC1[C@@]3(C)CC[C@H](O[C@@H]4O[C@H](CO)[C@@H](O)[C@H](O)[C@H]4O)C(C)(C)C3CC[C@]12C (stereo partly specified),·,-0.1,-4.4,-4.0,-0.6,0.1,9.3,16.7,-0.2,·
COc1ccc(NC(=O)CCCCC#Cc2ccccc2)cc1,-18.8,0.4,0.9,-1.4,-3.4,0.7,-3.0,-1.9,-2.8,-20.9
COc1ccc([C@@H]2CC=C(C(=O)O)[C@H](c3ccc(F)cc3)N2S(=O)(=O)c2ccc(Cl)cc2)cc1,·,-0.2,36.0,2.1,5.0,-0.2,-17.9*,-6.8*,7.2*,·
Cc1ccc(OC(C)C(=O)Nc2cc(C)on2)cc1 (stereo unspecified),-9.0,0.9,-4.5,5.9,-3.4,3.9,-2.2,-9.2,-3.1,-3.9
COc1ccccc1OCCn1cc(/C=N/NC(=O)c2ccncc2)c2ccccc21,13.9,0.3,-9.2,4.5,6.0,-4.3,-27.9*,-9.5*,0.9*,-10.1
CC1CC2OC(=O)C3(C)CCCC(C)(C23)C1(O)CCc1ccoc1 (stereo unspecified),3.8,1.0,-1.1,-6.1,-2.7,-4.9,-8.1,-7.5,-1.7,-0.3
C1CCN=C(Nc2nn[nH]n2)CC1,-12.6,0.1,-9.6,-1.4,-13.1,-1.0,·,·,·,-48.5
COc1ccc(-c2ccc(CCC(=O)O)n2CC(=O)Nc2ccccc2C)cc1,-7.1,0.0,·,9.4,·,0.4,2.0,-0.6,19.5,8.0
Cc1ccc(Cn2cc(S(=O)(=O)c3ccc(Cl)cc3)c(=O)c3cc(F)ccc32)cc1,25.0,0.4,21.8,-4.8,·,-0.1,·,·,·,-6.4
COc1ccc(C(=O)/C=C/Nc2ccccn2)cc1,·,-9.5,0.9,3.2,·,-1.9,·,·,·,·
Cn1nc(C(F)(F)F)c(-c2ccc(Br)cc2)c1NC(=O)c1ccco1,1.6,0.6,-0.7,3.5,5.4,-0.8,-32.3*,-23.1*,-5.4*,5.6
COc1cc(/C=N/N2C(C)CCCC2C)cc(Br)c1O (stereo unspecified),-9.8,-0.7,99.3*,2.4,·,-1.3,0.8,0.5,-3.1,-14.1
COC(=O)CCCn1nc(NC(=O)COc2ccc(F)cc2)cc1C,-6.8,0.8,-6.6,7.0,-3.2,-0.2,6.4,4.0,-0.2,-9.4
CC(C)(C)OC(=O)N[C@@H](Cc1ccccc1)c1nnc(S(=O)(=O)Cc2ccccc2)o1,·,1.9,6.0,·,48.9,0.1,·,·,·,·
CCOc1ccsc1C(=O)OC,-8.6,0.0,4.1,-5.6,-6.7,0.1,16.5,9.4,-0.7,8.5
COc1cc(OC)cc(-c2c(-c3cccs3)c3cc(-c4ccc(C(N)=O)cc4)ccc3n2C)c1,·,-1.6,0.2,5.6,22.4,-0.1,·,·,·,·
COc1cc(/C=N/NC(=O)CCC(=O)NC2CCCCC2)ccc1C,3.2,-0.3,-7.6,-2.3,1.2,2.6,16.6,14.9,2.6,19.6
COc1cccc(/C=N/NC(=O)CNC(=O)C(c2ccccc2)c2ccccc2)c1O,-14.8,-0.2,·,16.1,69.5,-1.7,-5.1,5.5,-1.0,6.9
COc1ccc(N(CC(=O)NCc2ccccc2)S(=O)(=O)c2c(C)nn(C)c2C)cc1,7.1,-0.4,-3.5,-2.3,6.9,-0.2,2.0,5.3,-5.2,-8.8
Cc1ccc(-c2noc(-c3ccccc3C(=O)NCC3CCCO3)n2)cc1 (stereo unspecified),7.2,-0.7,-3.0,0.4,-0.6,-0.4,·,·,·,3.3
CC(C)(C)c1nn(-c2ccccc2)c2[nH]c(=O)c(CNc3ccc4c(c3)OCCO4)cc12,1.6,0.1,-19.5,-21.4,-18.7,-4.0,·,·,·,4.1
CCOC(=O)N1CCN(S(=O)(=O)N2CCCC(C(=O)NCCc3ccc(OCC)c(OCC)c3)C2)CC1 (stereo unspecified),5.6,-0.3,2.6,-6.5,-3.2,10.7,-3.7,15.3,-3.7,13.1
COc1ccc(C2CC(c3ccc(F)cc3)n3nc(NS(C)(=O)=O)nc3N2)cc1 (stereo unspecified),-4.4,-0.4,-2.0,-3.8,-5.3,2.4,8.9,-0.6,-7.4,-9.7
CCOC(=O)C1=NN(C(=O)c2ccc(C)cc2)C(O)(c2ccc(Cl)cc2)C1 (stereo unspecified),-0.8,0.1,·,5.2,-0.7,-4.8,·,·,·,?
COc1cc(NC(=O)CCS(=O)(=O)c2ccc3c(c2)oc(=O)n3C)cc(OC)c1,15.9,0.5,-0.7,-6.4,-28.4,-0.5,2.5,10.8,3.5,-0.8
CC(NC(=O)CN1C(=O)NC2(CCCCC2C)C1=O)c1ccccc1 (stereo unspecified),·,0.5,-0.3,-0.5,-13.0,-0.8,8.2,8.4,0.6,·
CSc1nn(-c2ccc(C(=O)OC(C(=O)NC(N)=O)C(C)C)cc2)c(=S)s1 (stereo unspecified),-3.4,0.6,-5.8,-7.0,0.5,-2.7,-8.5,-8.4,-2.5,18.1
Cc1c(C)c2c(OCC(=O)NCc3ccccn3)cc3c(c2oc1=O)CCC(C)(C)O3,5.0,1.1,·,-8.8,8.0,-1.6,·,·,·,5.5
CC(=O)OCCn1c2nc(=O)[nH]c(=O)c-2nc2cc(C)c(C)cc21,0.3,3.1,-68.1,-53.3,-7.2,166.4*,88.8,-22.2,-5.3,1.6
COc1ccccc1CCC(=O)Nc1ccc2c(c1)CN(CCCn1cccn1)CC2,9.8,-0.1,-1.4,-6.4,-5.6,2.4,-1.5,-5.3,-3.3,3.0
CCN(Cc1ccccc1)C(=O)/C=C/c1ccccc1[N+](=O)[O-],11.7,·,·,8.1,·,·,-14.8,-18.2,-5.9,-13.2
Cc1ccc(NC(=O)N2CCN(c3ccccn3)CC2)cc1,-5.9,-1.6,-9.0,-10.3,-4.4,4.9,-9.6,5.0,0.0,-3.2
CCN1CCN(CCCN(Cc2ccco2)C(=S)Nc2cccc(Cl)c2C)CC1,10.4,-0.1,-5.9,8.1,-3.4,-1.2,-4.0,-9.2,-0.7,-6.6
COc1ccc(N2C(=O)CCC(C(=O)NCc3ccccn3)C2c2ccc(OC)c(OC)c2)cc1 (stereo unspecified),-3.7,-0.3,-16.9,5.6,-0.2,3.0,·,·,·,-3.8
NNC(=O)c1cccc(COc2ccccc2Br)c1,-3.3,0.7,98.4*,-7.2,-1.6,4.3,·,·,·,-20.5
Cc1ccc(NC(=O)Cc2ccc([N+](=O)[O-])cc2)c(Br)c1,5.7,0.8,-9.7,-1.4,1.9,-2.5,·,·,·,-7.3
Cc1ccc(CSCC(=O)Nc2ccccc2)cc1,-6.2,0.1,-14.5,6.3,3.0,-1.9,0.8,-0.1,2.5,-3.4
COc1cc(OC)cc(C(=O)N2CCN(c3ccc(N4CCOCC4)nn3)CC2)c1,5.2,-0.1,-17.1,-0.3,1.8,11.4,5.3,2.7,-1.6,5.6
Cc1cccc(N(C)S(=O)(=O)c2nnc(NC(=O)c3ccco3)s2)c1,12.7,2.9,-0.4,1.0,7.4,-3.7,-10.2,-5.1,7.2,-4.8
Cc1ccc(NS(=O)(=O)c2ccc(-c3cnc(C4CC4)o3)cc2)cc1,-23.1,0.6,-3.2,-5.2,19.4,-0.2,-64.0,-79.8,-16.0,0.6
Cc1ccc(NC(=O)c2cccc(N3C(=O)C4C5C=CC(C5)C4C3=O)c2)cc1C (stereo unspecified),-8.9,0.4,-17.9,-3.2,1.2,-10.3,-27.8,-27.9,-10.5,6.9
CC(=O)C1=C(c2ccccc2)NC(=O)NC1c1ccc(O)c(O)c1 (stereo unspecified),-19.3,-0.5,98.9*,-1.0,-3.5,-2.5,6.1,15.9,0.8,35.8
Cc1cc(C)c(C(=O)C2OC(=O)C(C)(C)C(=O)C2(C)C)c(C)c1 (stereo unspecified),-7.7,0.2,-13.7,5.0,·,-8.0,·,·,·,7.0
CCOC(=O)C1CCN(Cc2ccc(OC)c(C)c2OC)CC1,5.0,0.4,1.6,4.4,-0.6,-1.4,·,·,·,-3.9
O=C(CSc1nc2ccccc2s1)CSc1nc2ccccc2s1,4.0,0.2,-7.5,-0.7,·,-3.8,-0.6,-2.1,-4.8,14.6
Cc1cc2nncn2c(Cc2ccccc2)n1,-18.8,0.3,0.5,-5.9,-5.4,0.0,·,·,·,-3.0
COc1ccc(Cl)cc1NC(=O)Cn1nnc(C(=O)NCCc2ccc(OC)c(OC)c2)c1N,9.0,0.3,-7.5,8.8,1.7,4.1,0.7,4.6,-2.0,8.8
CN(C)S(=O)(=O)c1ccc(C(=O)OCC(=O)Nc2ccc(OC(F)F)cc2)cc1,-3.6,-0.2,-6.2,0.6,-1.5,1.1,7.4,18.9,3.1,-3.3
COC(=O)c1cccc(-n2c(=O)n(Cc3ccccc3)c(=O)c3[nH]cnc32)c1C,-4.4,-0.1,-5.4,-0.8,0.0,0.9,-5.9,6.8,-2.1,-1.0
CN1CCN(S(=O)(=O)c2cccc(C(=O)NCc3ccc(Cl)cc3)c2)CC1,7.2,-1.8,-1.5,-5.2,2.6,1.6,8.1,2.3,-1.3,-27.1
CCCCc1c(O)nc(SCC(=O)Nc2ccc(C)cc2)n(-c2ccc(OC)cc2)c1=O,0.6,0.4,98.8*,-3.8,1.5,-0.2,2.6,12.9,0.4,-4.9
O=C(CSCc1ccccc1)Nc1ccccc1C(=O)Nc1ccc(C(=O)O)cc1,-7.1,0.3,23.5,-1.0,-5.4,-5.3,1.2,0.6,5.0,0.1
CCCSc1nc(C)cc(C)c1S(=O)(=O)c1ccccc1C,7.5,0.7,0.2,-4.6,0.0,2.0,·,·,·,-3.1
COc1ccc(NC(=O)/C(=C/c2cccs2)NC(=O)c2ccco2)cc1,4.8,-0.5,-4.0,-5.9,-0.7,2.0,-4.6,-1.0,-2.2,12.9
COC(=O)c1cc(-c2ccc(OC)c(OC)c2)on1,-7.0,-0.4,-7.5,14.5,-1.2,1.4,·,·,·,-6.8
CN1CCN(C(=O)c2ccccc2NC(=O)c2cccc(Cl)c2)CC1,-11.1,-0.2,-0.8,0.4,-0.1,3.6,6.0,9.6,-0.4,1.4
COc1ccc(N(C(=O)CNC(=O)c2ccco2)C(C(=O)NC2CCCC2)c2ccncc2)cc1 (stereo unspecified),-10.7,0.8,-3.5,-2.7,-2.3,-0.3,9.0,24.1,7.0,6.7

# Source: PubChem
